# Screening results from PubChem.
# PABP FP inh = blocks human PABP binding to poly(A) RNA. fluorescence polarization. hit rate 1% among 290,000. P11940. AID 2014. inhibition, % at 35 µM;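 active = 50% or more with normal probe brightness, or confirmed in later tests; inconclusive = above 50% with abnormal brightness, or retests that disagree; inactive = below 50% or failed in later tests; about a fifth of its hits are not listed in these tables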;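 also: calls also rest on retests at 20 µM and on dose response follow-up; controls were probe without protein and protein plus probe with vehicle; some compounds called inactive have numbers as strong as hits; many hits fall short of the cut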
# Target sequence (P11940 whole entry, looked up): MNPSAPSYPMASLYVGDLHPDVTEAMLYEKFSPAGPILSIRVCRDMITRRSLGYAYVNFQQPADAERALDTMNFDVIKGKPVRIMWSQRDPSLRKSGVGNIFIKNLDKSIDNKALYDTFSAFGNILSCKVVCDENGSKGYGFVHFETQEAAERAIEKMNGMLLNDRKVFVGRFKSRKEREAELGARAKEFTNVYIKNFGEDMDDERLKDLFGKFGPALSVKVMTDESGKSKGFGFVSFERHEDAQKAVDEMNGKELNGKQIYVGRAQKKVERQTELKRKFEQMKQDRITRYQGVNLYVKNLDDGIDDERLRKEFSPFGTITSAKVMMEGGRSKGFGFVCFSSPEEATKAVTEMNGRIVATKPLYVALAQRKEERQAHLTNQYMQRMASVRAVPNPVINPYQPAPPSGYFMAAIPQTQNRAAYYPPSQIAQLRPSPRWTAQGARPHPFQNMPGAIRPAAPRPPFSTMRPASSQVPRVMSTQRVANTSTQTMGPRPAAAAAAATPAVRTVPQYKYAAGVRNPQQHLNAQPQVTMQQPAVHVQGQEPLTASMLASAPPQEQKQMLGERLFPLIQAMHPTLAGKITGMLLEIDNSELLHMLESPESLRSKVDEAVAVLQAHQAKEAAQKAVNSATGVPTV
# eIF4H inh = inhibitors of RNA binding by human eIF4H. Q15056. eIF4H fluorescence polarization binding assay. inhibition, % at 35 µM. hit rate 0.94% among 290,000. AID 2012;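 active = 50% or more with normal probe brightness, or confirmed in later tests; inconclusive = above 50% with abnormal brightness, or retests that disagree; inactive = below 50% or failed in later tests; about a fifth of its hits are not listed in these tables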;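 also: calls also rest on retests at 20 µM and on dose response follow-up; 0% = protein and probe with vehicle and 100% = probe without protein; strong numbers were not always called active; many hits fall short of the cut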
# CSC inhib = cancer stem cell inhibition; inhibition, % at 7.5 µM; cancer stem cell-like cells viability, luminescence; hit rate 1.1% among 300,000; AID 2717;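 active = mean at 75% or more and at least half the replicates too; inconclusive = mean and replicates disagree; tested in HMLE shEcad cells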;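 also: 0% = median of negative and 100% = median of positive control wells; the first replicate is given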
# UUG fidelity = alters start codon recognition fidelity in yeast; S. cerevisiae UUG-firefly luciferase reporter, luminescence/redox ratio; activity score, % at 18.7 µM; hit rate 0.13% among 350,000;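 active = replicate mean at a twofold rise or more, about +100% in these data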;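 also: firefly luciferase made from a UUG start codon reports start codon fidelity; reporter light over untreated wells divided by growth signal over untreated wells; some hits fall short of that in this replicate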
# Env fusion inh = blocks HIV Env-driven cell-cell fusion; inhibition, % at 12.3 µM; AID 651610; hit rate 1.1% among 360,000; HeLa-JRFL Env/CEM21 cell fusion, luciferase;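 active = mean replicate inhibition score of at least 50 and every replicate individually at or above 50; inconclusive = only one of the two criteria met; inactive = mean below 50 and not all replicates reaching 50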;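 also: 0% = plate neutral controls and 100% = maraviroc near 300 nM; one replicate is shown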
# Rce1 inh = inhibitors of yeast Ras-converting enzyme | Q03530 | yeast membranes, quenched prenylated peptide cleavage fluorescence | AID 2563 | hit rate 0.27% among 290,000 | calls only;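 active = fall in fluorescence gain of 50% or more versus controls, with final raw signal at or below 3038400; inconclusive = same 50% fall but final raw signal above 3038400; inactive = fall in fluorescence gain under 50%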;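 also: plate controls were neutral control wells for no effect and wells lacking membranes for full effect; tested at 10 µM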
# MT1-MMP act inh = MT1-MMP (human) activation inhibition | HT1080 RFP-PRO-GFP cells, GFP/RFP ratio fluorescence, overnight; percent of plate control window, DMSO zero | GFP/RFP ratio change, % at 20 µM | P50281 | hit rate 0.061% among 360,000;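 active = GFP/RFP ratio change of at least 30% with cell ATP level not reduced by more than half and red fluorescence within 50% of control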; also: strong numbers were not always called active
#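 Material – HT1080 RFP-PRO-GFP cells · Control set – DMSO wells and RFP-L50D-GFP cells · Incubation – overnight cell settling, then overnight compound exposure, 37 °C, 5% CO2 · Compound dosing – single-point 20 µM compound, 1% DMSO · Read-out – GFP/RFP fluorescence ratio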
# eIF4H inh retest = also measured in eIF4H inh; calls as there; inhibition, %; compound at 20 µM; confirmation average;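 mean of two retest wells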
# PABP FP inh retest = also measured in PABP FP inh; calls as there; inhibition, %; compound at 20 µM; confirmation repeats;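 mean of two retest wells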
# MT1-MMP act inh RFP = further read-out of MT1-MMP act inh, marked with its call; RFP signal change, %; measured here: RFP expression control read;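 0 = vehicle wells; hits needed this value within 50% of zero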
# * = called active by the depositor; i = inactive; ? = inconclusive; · = not tested or not shown. Not a hit list (roughly 3% active in at least one column).
SMILES,PABP FP inh,eIF4H inh,CSC inhib,UUG fidelity,Env fusion inh,Rce1 inh,MT1-MMP act inh,MT1-MMP act inh RFP,others
COc1ccc(-n2c(Cc3cccn3C)nnc2SCC(=O)Nc2ccccc2F)cc1,-7,0,-10,-14,-29,i,0,-2,
C#CCOCCOCCOCCNc1nc(N2CCOCC2)nc(N2CCN(C(=O)[C@H](Cc3cc4ccccc4[nH]3)n3cc([C@@H](N)Cc4ccc(O)cc4)nn3)CC2)n1,-3,-5,-16,-7,-3,i,-2,3,
Cc1ccc(C(=O)Nc2ccc(N3CCN(S(C)(=O)=O)CC3)cc2)cc1C,0,3,1,·,-2,i,0,-1,
CC(C)(C)CN1C(N)=NC[C@@H]1c1ccccc1,·,·,-3,-5,2,i,3,2,
Cc1cc(OCC(=O)Nn2cnnc2)ccc1Br,-9,-14,5,-6,·,i,·,·,
COc1ccc(N(Cc2cc3ccccc3[nH]c2=O)S(=O)(=O)c2ccccc2)cc1,0,2,5,0,6,i,-2,-3,
CCc1cc2c(=O)c(-c3ccc4c(c3)OCCO4)c(C)oc2cc1OS(C)(=O)=O,-5,-2,36,-20,0,i,4,-8,
N#CC1=C(N)SC(N)=C(C#N)C1c1ccnc2ccccc12,?,?,-1,·,·,i,-35,7,
COc1cccc(NC(=O)c2ccc3c(c2)OCO3)c1,-10,-6,9,-31,-37,·,1,0,
COc1ccc(NC(=O)Cn2nnc(C(=O)NCc3cccs3)c2N)cc1OC,-2,-8,-15,-15,-4,i,-1,-3,
Cn1cccc1/C=N/NC(=O)C(O)c1ccccc1 (stereo not drawn),14,0,-4,-31,-10,i,3,4,
O=C(Nc1ccccc1OC(F)F)c1ccc(Br)o1,-9,-4,-6,-9,·,i,3,6,
Cn1c(=O)n(Cc2ccco2)c(=N)c2c3c(sc21)CCCC3,8,-14,-2,·,19,·,-1,-8,
O=C(NCc1cccc(Cl)c1)c1ccncc1,5,7,11,-12,1,i,2,3,
CCC(CC)C(=O)Nc1nnc(S(=O)(=O)N2CCCc3ccccc32)s1,-14,-16,2,-4,-15,i,0,-7,
O=C(NCc1ccc2c(c1)OCO2)c1ccc2c(c1)OCCO2,1,-2,2,-5,·,i,-3,2,
CC[n+]1c(C)cc(C)n1-c1ccccc1,-1,-2,-1,·,-5,i,0,2,
COC(=O)c1ccccc1NC(=O)c1cnc2sccn2c1=O,-7,8,3,-12,·,i,0,1,
Cc1ccc(C)c(OCc2n[nH]c(=S)o2)c1,4,4,1,-13,-72,i,-2,1,
O=c1cc(CN2CCN(c3cccc(Cl)c3)CC2)c2cc(O)c(-c3ccccc3)cc2o1,2,0,-8,-8,·,i,-6,-1,
CN(Cc1ccccc1)C(=C(Cl)Cl)C(=C1NCCN1)[N+](=O)[O-],5,10,-6,·,·,i,2,1,
O=S(=O)(c1ccc2ccccc2c1)N1CCN(S(=O)(=O)N2CCOCC2)CC1,3,-7,-12,-15,·,i,0,-5,
COc1ccccc1C=Cc1ccnc2ccccc12,·,·,·,-18,-80,·,1,-11,
Cc1cc(C(=O)CSc2nnc(-c3ccco3)o2)c(C)n1CC1COc2ccccc2O1 (stereo not drawn),37,38,·,12,·,i,-2,-6,

# Brought forward from above: 2 entries, then new ones.
SMILES,PABP FP inh,eIF4H inh,CSC inhib,UUG fidelity,Env fusion inh,Rce1 inh,MT1-MMP act inh,MT1-MMP act inh RFP,others
COc1ccccc1C=Cc1ccnc2ccccc12,·,·,·,-18,-80,·,1,-11,
Cc1cc(C(=O)CSc2nnc(-c3ccco3)o2)c(C)n1CC1COc2ccccc2O1 (stereo not drawn),37,38,·,12,·,i,-2,-6,
Cc1n[nH]c(=O)c2c(NC(=O)CSc3c(Cl)cccc3Cl)oc(C)c12,·,·,-5,·,-13,i,0,-4,
CCCC(C(=O)n1nc(C)cc1C)C(NS(=O)(=O)c1ccc(C)cc1)c1ccccc1 (stereo not drawn),0,-16,14,-12,·,i,-27,-27,
O=C(CSc1nc2ncc(Cl)cc2[nH]1)c1c[nH]c2ccccc12,-11,-4,-8,-7,-18,i,-6,8,
CN(C)c1ccc(S(=O)(=O)N2CCC(Cc3ccccc3)CC2)cn1,·,·,2,-4,·,·,-1,-10,
O=C(Nc1ccc2c(c1)OCCO2)c1cccc(Cl)c1Cl,-6,3,3,-16,-93,i,0,3,
Cc1ccc(Sc2c(C)[nH]n(C(C)(C)C)c2=O)cc1,-6,-13,-4,-18,20,i,-2,6,
O=C(O)C1=CC[C@@H](c2ccc(Cl)cc2)N(S(=O)(=O)c2ccc(Cl)cc2)[C@H]1c1ccc(F)cc1,·,·,19,-7,-25,·,4,2,
Cc1ccc(NC2c3ncccc3C(=O)N2Cc2ccco2)c(C)c1 (stereo not drawn),-7,-3,0,-28,6,·,0,1,
CCOC(=O)c1cc2c(=O)n3ccccc3nc2n(C(C)C)c1=NC(=O)c1c(-c2ccccc2Cl)noc1C,?,16,46,·,37,i,-46,-14,
O=C(c1cc2nc(-c3ccc(Cl)cc3)cc(C(F)(F)F)n2n1)N1CCOCC1,6,-4,20,·,8,i,1,-3,
COc1cccc(NC(=O)CCN2C(=O)c3ccccc3Sc3ncccc32)c1,-8,-17,-9,-10,4,i,2,-1,
CCN(CC)C(=O)C1=C(C)N(Cc2ccc(F)cc2)C(=O)C(CC(=O)NCc2ccco2)C1 (stereo not drawn),·,·,·,-3,-20,·,2,5,
O=C(NC(O)C(=O)c1ccccc1)c1cccs1 (stereo not drawn),7,3,-2,-23,-9,i,0,5,
CCOC(=O)C1CCN(C(=O)c2ccccc2NC(=O)c2ccc(Br)cc2)CC1,4,-4,-14,·,-14,i,-3,5,
CCNc1sc(C(=O)c2cccs2)c(N)c1-c1nc2ccccc2s1,53,30,62,-19,·,i,0,3,eIF4H inh retest=26;PABP FP inh retest=27
COc1ccc(Br)cc1/C=N/NC(=O)c1ccc(OC)c(OC)c1,-1,5,-3,·,11,i,4,1,
O=C(COC(=O)CCSc1ccccc1)NCc1ccccc1,-2,4,4,43,6,i,-2,-1,
O=c1c2ccccc2[nH]c(=S)n1Cc1cccnc1,-2,1,-7,35,·,·,-4,3,
Cn1cc2ccc(N)cc2n1,3,-6,·,-13,8,·,5,3,
CCCCC(=O)NNC(=O)N1c2ccccc2Sc2ccccc21,-6,1,-18,-10,13,i,-4,-3,
Cc1ccc2c(=O)oc(N(C)C)nc2c1,-15,3,-4,·,-30,i,0,1,
CCS(=O)(=O)c1ccc2oc(Nc3cc(Cl)ccc3OC)nc2c1,2,-5,17,-17,-47,i,7,3,
CCCNC(=O)Cc1c(OC)ccc2cc(Br)ccc12,1,60,0,·,11,i,-1,-6,eIF4H inh retest=5;PABP FP inh retest=-1
O=C(Nc1ccc(-c2nc3ccccc3[nH]2)cc1)c1c(F)c(F)c(F)c(F)c1F,0,-11,-5,30,-9,i,3,3,
CC(C)=C1SC(N2CCN(c3ccc(C)c(Cl)c3)CC2)=NC1=O,-1,2,25,·,0,i,0,-6,
CC(=O)C1=C(C)NC(SCC(=O)c2ccc(F)cc2)=C(C#N)C1CC(C)C (stereo not drawn),14,5,-4,·,-35,i,-1,-1,
COc1ccc(OC)c(C(=O)/C=C/c2cccnc2)c1,1,-15,49,-29,11,i,-6,-5,
Cc1ccc(NC(=O)CCC(=O)c2cc(C)sc2C)nc1,·,·,-7,·,-1,i,-7,0,
COc1cccc(NC(=O)CCN2CCN(C)CC2)c1,9,-5,-7,-1,·,i,3,8,
COC(=O)c1cc2n(n1)CCN(Cc1ccccc1F)C2=O,4,-4,-9,-1,·,i,-2,-5,
O=C(O)c1ccccc1Nc1ccc([N+](=O)[O-])cc1C(=O)O,10,-1,-12,16,4,i,-2,4,
O=C(Nc1nc(-c2cccs2)cs1)c1ccc(Cl)s1,-14,8,62,-20,-284,i,-23,-37,
O=C(Nc1ccc(Br)cc1)c1ccc2c(c1)OCO2,-4,-7,7,-12,-185,i,9,-2,
CC1=C(C(=O)OCc2ccccc2)C(c2ccccc2)NC(=O)N1CCCC(=O)O (stereo not drawn),10,-6,2,0,-43,i,7,2,
O=C(Nc1nnc(Cc2ccc(Cl)cc2)s1)c1ccncc1,-1,-4,0,3,9,i,-3,-4,
CN(Cc1nc(-c2cccnc2)no1)S(=O)(=O)c1ccc2ccccc2c1,-4,2,1,-4,0,i,4,0,
COc1cccc(C(C(=O)NCc2ccco2)N(Cc2ccco2)C(=O)Cn2nnc3ccccc32)c1 (stereo not drawn),2,3,-14,-14,·,i,-4,-9,
O=C(Nc1ccc(Br)cc1F)c1cccnc1,7,7,5,-5,-55,i,1,2,
COc1ccccc1/C=C/C(=O)OCC(=O)c1cc(C)n(C)c1C,·,·,-5,-7,·,·,1,-2,
O=C1C(=O)N(Cc2cccnc2)C(c2cccc([N+](=O)[O-])c2)/C1=C(/O)c1ccc2c(c1)OCO2 (stereo not drawn),-5,-5,-6,-13,19,i,-2,2,

# 7 compounds drawn at random from those above, as already listed:
SMILES,PABP FP inh,eIF4H inh,CSC inhib,UUG fidelity,Env fusion inh,Rce1 inh,MT1-MMP act inh,MT1-MMP act inh RFP,others
COc1ccc(OC)c(C(=O)/C=C/c2cccnc2)c1,1,-15,49,-29,11,i,-6,-5,
Cc1n[nH]c(=O)c2c(NC(=O)CSc3c(Cl)cccc3Cl)oc(C)c12,·,·,-5,·,-13,i,0,-4,
O=C(NCc1ccc2c(c1)OCO2)c1ccc2c(c1)OCCO2,1,-2,2,-5,·,i,-3,2,
O=S(=O)(c1ccc2ccccc2c1)N1CCN(S(=O)(=O)N2CCOCC2)CC1,3,-7,-12,-15,·,i,0,-5,
Cc1cc(C(=O)CSc2nnc(-c3ccco3)o2)c(C)n1CC1COc2ccccc2O1 (stereo not drawn),37,38,·,12,·,i,-2,-6,
O=C(O)c1ccccc1Nc1ccc([N+](=O)[O-])cc1C(=O)O,10,-1,-12,16,4,i,-2,4,
Cn1cccc1/C=N/NC(=O)C(O)c1ccccc1 (stereo not drawn),14,0,-4,-31,-10,i,3,4,
